Bioassay records: PubChem BioAssay, several laboratories
Bfl-1 A1 inh = caspase 3/7 activation in MEF A1-2A-BIM cells, primary screen, A1 inhibitor project, cell-based, luminescence, HTS | caspase activation, % (concentration not given with the values) | Caspase-Glo 3/7 luminescence, 3 h; percent of clofoctol response, vehicle zero | 330,000 tested, 0.066% active;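 active = over half of replicate activation scores above 10%, or exactly half above 10 with the replicate mean above 10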;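 note: wells of about 30 µL received 50 nL stock; many hits fall short of the cut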
Ecoli growth = E. coli growth inhibition, primary screen, OD600 | Escherichia coli growth, 23 h; stronger effect = lower value | OD600 absorbance (test concentration not listed) | 330,000 tested, 0.21% active;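 active = OD600 absorbance below the run mean of sample wells minus 3.6 SD, in any replicate, cut at about 0.56 in these data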;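 note: stock transfer was 300 nL into about 60 µL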
Ecoli rRNA inh = reduced GFP signal of wild-type E. coli, primary screen, bacterial rRNA inhibitor project, GFP/RFP fluorescence, OD600, single point; E. coli WT GFP vs humanized-ribosome RFP mutants, 24 h; stronger effect = lower value; DMSO median 0, no signal -100; GFP signal change (wild-type ribosome), % (concentration not given with the values); 350,000 tested, 1.6% active;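 active = significant combined selectivity score with lowered wild-type GFP, culture density cut under 30%, mutant RFP and density less affected; inactive = any of these conditions unmet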; note: one replicate is shown; some compounds called inactive have numbers as strong as hits
FGF22 binding = binders of human FGF22 protein, primary screen, FGF22 synaptogenesis inhibitor project, biophysical, thermal shift, single point. recombinant FGF22 thermal shift, SYPRO orange fluorescence; percent of sucrose octasulfate shift, DMSO zero. Fibroblast growth factor 22 (Homo sapiens), Q9HCT0. calls only at 9.99 µM. 340,000 tested, 1.5% active. AID 651658, 2012;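 active = melting point raised past a set limit in the mean and every replicate; three in four hits are not shown here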
Beta cell apopt = inhibitors of cytokine-induced beta cell apoptosis, primary screen, luminescence; INS-1E cytokine-induced death, ATP luminescence, 48 h; percent of positive-control rescue, neutral wells zero; AID 435005, 2010; 300,000 tested, 0.8% active; protection from apoptosis, % (concentration not given with the values);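 active = all replicates at 75% or more, or half of them and the mean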;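 note: 0% = cytokine-treated negative control wells and 100% = positive control rescue; higher means more ATP so stronger rescue from cytokine killing; wells of about 40 µL received 100 nL stock; the first replicate is given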
UCH37 inh = inhibitors of human UCH37 deubiquitinase, primary screen, biochemical, Ub-AMC cleavage, fluorescence; Ubiquitin carboxyl-terminal hydrolase isozyme L5 (Homo sapiens), Q9Y5K5; purified proteasome/UCH37; inhibition, % (no concentration beside the values); 330,000 tested, 0.33% active;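 active = mean of two replicates above 20%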;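 note: 0% = compound-free wells with enzyme and 100% = wells lacking proteasome; stock transfer was 100 nL into about 20 µL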
Target sequence (Q9Y5K5 whole entry, looked up): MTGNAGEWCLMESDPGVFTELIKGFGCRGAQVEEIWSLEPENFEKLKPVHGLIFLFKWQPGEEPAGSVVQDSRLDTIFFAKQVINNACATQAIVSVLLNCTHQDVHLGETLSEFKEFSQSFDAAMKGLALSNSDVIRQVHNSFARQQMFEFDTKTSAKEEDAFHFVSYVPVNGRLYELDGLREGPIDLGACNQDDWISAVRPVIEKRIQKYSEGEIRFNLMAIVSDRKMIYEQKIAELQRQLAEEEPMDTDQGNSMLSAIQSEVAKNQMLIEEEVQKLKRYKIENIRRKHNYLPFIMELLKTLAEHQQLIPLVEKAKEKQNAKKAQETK
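Test system – human UCH37 enzyme supplied as purified proteasome complex · Incubation – 30 min preincubation with enzyme, 25 min cleavage at room temperature · Detection – AMC fluorescence from Ub-AMC cleavage, excitation 355 nm, emission 460 nm · Benchmarks – no-proteasome wells (full inhibition) and compound-free wells (no inhibition)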
AF4-AF9 inh = inhibitors of AF4 peptide binding to AF9, primary screen, biochemical, AlphaScreen, biotin-AF4 peptide, FLAG-AF9, single point | Protein AF-9 (Homo sapiens), P42568 | inhibition, % at 10 µM | 350,000 tested, 0.47% active | AID 651704, 2012;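 active = every replicate reaching a set inhibition limit, whatever the replicate mean, cut at about 25% in these data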;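 note: 0% = plate neutral control median and 100% = total signal loss; the record names both 10 and 1 µM as test concentration; the first replicate is given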
Target sequence (P42568 whole entry, looked up): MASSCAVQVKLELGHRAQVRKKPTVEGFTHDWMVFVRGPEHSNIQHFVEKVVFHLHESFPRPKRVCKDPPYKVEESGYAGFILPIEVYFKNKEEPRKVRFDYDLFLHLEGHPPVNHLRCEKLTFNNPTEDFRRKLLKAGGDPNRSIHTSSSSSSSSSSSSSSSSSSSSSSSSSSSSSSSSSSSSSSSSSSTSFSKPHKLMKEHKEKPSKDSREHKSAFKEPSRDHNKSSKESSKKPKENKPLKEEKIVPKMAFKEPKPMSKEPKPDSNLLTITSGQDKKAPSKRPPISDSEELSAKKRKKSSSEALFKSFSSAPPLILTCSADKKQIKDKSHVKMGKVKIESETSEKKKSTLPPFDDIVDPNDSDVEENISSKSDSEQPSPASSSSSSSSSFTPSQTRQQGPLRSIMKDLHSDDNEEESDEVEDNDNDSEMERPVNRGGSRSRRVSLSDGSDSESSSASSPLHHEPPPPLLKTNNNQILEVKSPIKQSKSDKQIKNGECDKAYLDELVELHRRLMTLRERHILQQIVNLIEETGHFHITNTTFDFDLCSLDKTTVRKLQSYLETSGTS
T cruzi inh = inhibitors of intracellular T. cruzi growth, primary screen, luminescence, NIH3T3 host cells; T. cruzi beta-gal in NIH3T3, 90 h; inhibition, % (test concentration not listed); 300,000 tested, 1.4% active;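 active = mean inhibition across valid replicates above about 55%, limit read from the data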;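 note: signal also drops with host cell toxicity which is not excluded here; 0% = plate median of DMSO wells and 100% = zero luminescence signal; higher percent means less beta-gal luminescence so fewer parasites; stock transfer was 50 nL into about 50 µL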
Ecoli rRNA inh OD600 = recorded beside Ecoli rRNA inh, whose call it bears; OD600 change, %; measured here: OD600 growth;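 optical density of the mix in the first replicate; 0 = DMSO median and -100 = no signal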
Ecoli rRNA inh RFP = second read-out of Ecoli rRNA inh, no call of its own (marks repeat the call); RFP signal change, %; measured here: RFP humanized mutant strains;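 first replicate; 0 = DMSO median and -100 = no signal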
The depositor's hits bear a star; i = inactive; · = not tested or not shown; & = joins results of further samples.

molecule	Bfl-1 A1 inh	Ecoli growth	Ecoli rRNA inh	Ecoli rRNA inh OD600	Ecoli rRNA inh RFP	FGF22 binding	Beta cell apopt	UCH37 inh	AF4-AF9 inh	T cruzi inh
NC(=O)c1ccc(Cn2c(C(=O)c3ccc(Cl)cc3)c3ccccc3[n+]2[O-])cc1	-0.8	0.7	8	11	7.9	i	0	0.5	0.6	·
Cc1ccc(NC(=O)CSc2n[nH]c(C)c2[N+](=O)[O-])cc1	0.4	0.68	·	·	·	·	-9	-2.0	·	-15
O=C(CSc1ncn(-c2ccccc2)n1)Nc1nc(-c2ccccc2)cs1	1.8	0.77	·	·	·	·	1	4.0	·	4
O=C(NCCN1CCOCC1)c1ccc(=O)n(Cc2ccc(Cl)cc2)c1	-0.2	0.69	-2	-3	2.6	i	-7	0.4	-0.8	-14
CCOc1ccccc1CN1CCN(Cc2ccc3cc(F)ccc3n2)CC1CCO (centres undefined)	0.0	0.7	7	-1	-1.8	i	-6	3.0	-0.1	36
CCOC(=O)N1CCN(C(=O)CSCc2ccccc2)CC1	1.6	0.73	·	·	·	·	-2	1.1	·	-11
O=C(CSCCOc1ccccc1)NCc1ccncc1	1.0	0.68	-1	-19	-3.0	i	-2	6.2	3.4	-21
CCOC(=O)c1cnn(CCOC(=O)c2ccccc2)c1NC(=O)c1ccccc1	-0.8	0.65	·	·	·	·	1	-0.5	·	4
CCn1cc(C(=O)NCCCO)c(=O)c2cc(F)c(N3CCN(C)CC3)cc21	0.6	0.071*	-62	-80	-30	i	0	-44	1.0	-2
CC1CCN(C(=O)c2ncn(C)c2C(=O)N2CCC(C)CC2)CC1	-0.8	0.68	16	23	0.4	i	-1	6.0	-4.3	·
Cc1cc(NC(=O)CSc2nc3cc(C)c(C)cc3cc2C)no1	0.1	0.7	3	7	-2.5	i	5	1.7	-8.1	-15
CC(C)Cc1ccc(C(C)C(=O)OCC(=O)c2c[nH]c3ccccc23)cc1 (centres undefined)	-0.1	0.69	·	·	·	·	-4	5.3	·	1
Cc1ccc(-n2ncc3c2CCCC3NC(=O)CCn2ccnc2C)cc1C (centres undefined)	1.1	0.69	5	2	6.5	i	2	2.7	5.5	-12
COc1cc(C(=O)Nc2sc3c(c2C(=O)O)CCC3)cc(OC)c1OC	0.1	0.66	-11	0	-1.7	i	-3	5.2	-0.4	-5
CC1Nc2ncnc(N3CCN(c4ccccc4)CC3)c2N(Cc2ccccc2)C1=O (centres undefined)	0.0	0.65	6	9	3.1	i	0	2.4	-16	-8
Cn1c(=O)c2c([nH]c(=O)n2C)n(C)c1=O	1.9	0.69	·	·	·	·	-1	1.2	·	-3
CCOC(=O)c1sc(-c2ccccc2)cc1NC(=O)Nc1ccc([N+](=O)[O-])cc1	-0.3	0.67	·	·	·	i	10	8.7	1.9	1
Cc1cc(S(=O)(=O)N2CCN(c3c(C)cccc3C)CC2)ccc1F	-0.2	0.8	·	·	·	·	0	5.3	·	24
NC(=O)c1nsc(C(=O)N(c2ccccc2F)C(C(=O)NCc2ccccc2)c2ccc(O)cc2)c1N (centres undefined)	-1.0	0.71	-37	-35	-7.6	i	7	-110	-0.3	2
O=C(Nc1cc(Sc2ccccn2)cc([N+](=O)[O-])c1)c1ccc(Cl)cc1	-0.9	0.72	·	·	·	·	75*	2.6	·	52
Cc1ccc(NC(=O)c2ccccc2-c2ccccc2C(=O)O)cc1C	0.1	0.64	-12	-16	14	·	-9	0.4	-2.2	6
Cc1ccc(-n2nnnc2SCC(=O)NNC(=O)c2ccco2)c(C)c1	-0.2	0.71	10	9	4.2	i	4	1.5	3.3	-28
COc1ccc(-n2nc3c(c2NC(=O)COc2cccc(OC)c2)CS(=O)(=O)C3)cc1	-1.3	0.72	-3	-6	-1.3	i	-1	1.5	0.3	19
CCOC(=O)N1CCN(CC(=O)N2CCC(C(N)=O)CC2)CC1	-0.2	0.68	8	13	2.7	i	-6	3.0	-0.4	3
CCOc1cc(NC(=O)C2CCCCC2)c(OCC)cc1NC(=O)c1ccccn1	0.1	0.7	1	3	-0.5	i	7	-55	3.4	51
Fc1ccc(C2N(c3ccccc3)C(=S)N3CCCN23)cc1 (centres undefined)	0.0	0.59	-11	-11	-3.5	i	·	2.1	2.3	-1
Cc1ccc(C)c(-n2nnnc2Sc2nnnn2-c2ccccc2)c1	1.8	0.69	·	·	·	·	·	-0.8	·	-6
COC(=O)CSc1nnc(-c2ccccc2OC)o1	-0.3	0.74	·	·	·	·	4	-1.8	·	-15
Cc1c(NC(=O)CSc2ccccc2Cl)c(=O)n(-c2ccccc2)n1C	0.2	0.69	5	3	-1.2	i	-3	2.1	-1.8	0
COc1cccc(CC(=O)OCC(=O)N(C)CC(=O)Nc2ccccc2Cl)c1	-0.3	0.68	12	11	1.4	i	1	2.3	-5.3	·
CN(C(=O)CCNC(=O)Cn1cnc2ccccc2c1=O)c1ccc(Br)cc1	-0.3	0.7	2	-2	0.8	i	-3	1.5	-4.5	6
COc1ccc(C(NC(=O)C(C)C)c2c(O)ccc3ccccc23)cc1OC (centres undefined)	0.9	0.69	·	·	·	·	-5	-6.4	·	5
COC(=O)c1ccc(NC(=O)COC(=O)C2CC(=O)N(Cc3ccccc3)C2)cc1 (centres undefined)	0.7	0.72	2	0	-0.7	·	-8	6.2	-1.2	-3
Cc1cc(=O)oc(C)c1C(=O)NCc1c(F)cc(F)cc1F	0.1	0.66	·	·	·	·	-3	13	·	-7
Cn1c(CN2CCN(CCO)CC2)c(C#N)c2ccccc21	-0.2	0.61	-1	9	1.8	i	·	1.4	1.3	20
O=C(N/C(=C\c1cccnc1)C(=O)N1CCOCC1)c1cccc(Br)c1	0.3	0.68	·	·	·	·	-2	6.5	·	-5
Cc1cccc(Cc2nc3ccccc3[nH]2)c1	·	0.63	2	-18	0.5	i	·	-0.1	-1.6	·
CCCc1nc2oc3c(NCCCN(C)C)ncnc3c2c2c1CCCC2	0.8	0.66	-23*	-14*	3.9*	i	0	-12	1.3	25
CCCCOc1ccc(CSC2=NCCN2)cc1[N+](=O)[O-]	0.5	0.69	10	13	0.1	i	-8	6.8	1.4	66*
CCOc1ccc(-c2nnn(CC(=O)c3ccc4c(c3)OCCO4)n2)cc1OCC	0.1	0.71	9	2	3.1	i	-4	2.1	4.9	5
COc1ccc([N+](=O)[O-])cc1C(=O)NCCOc1ccc(Cl)cc1	-0.1	0.63	-29	-41	-4.5	i	-2	3.0	-4.3	2
O=C(CSc1nnc(Cc2ccccc2)n1Cc1ccco1)NC12CC3CC(CC(C3)C1)C2	0.9	0.68	·	·	·	·	2	3.2	·	36
Cc1ccc(C)c(S(=O)(=O)N(C(=O)c2ccncc2)c2ccc(OC(=O)c3ccncc3)cc2)c1	0.9	0.68	2	9	4.8	i	-13	1.4	1.1	6
Cn1c(=O)oc2cc(S(=O)(=O)NCC3CCCO3)ccc21 (centres undefined)	0.5	0.64	·	·	·	·	-2	-0.3	·	-8
CC(CNC(=O)CC(C)(C)C)NC(=O)CC(C)(C)C (centres undefined)	0.5	0.7	·	·	·	·	-7	-1.3	·	-6
Cn1c(CC2Sc3ccccc3NC2=O)nnc1SCC(=O)c1ccc(Cl)cc1 (centres undefined)	0.8	0.65	·	·	·	i	-5	3.5	0.1	5
CC(C)c1ccc(N2C(=O)/C(=C/N(C)C)SC2=S)cc1	0.3	0.65	-11	-8	1.6	i	14	5.9	4.7	29
CCC(=O)NCCc1nc2ccccc2[nH]1	0.3	0.67	7	9	-2.2	i	-1	-1.6	3.2	-4
CCn1c(CC(=O)Nc2ccc(C)cc2)nnc1SCC(=O)NCc1ccccc1	0.9	0.69	·	·	·	·	0	5.8	·	1
COc1ccccc1C(CCN(Cc1cccs1)C(C)=O)c1ccco1 (centres undefined)	-0.4	0.72	·	·	·	·	-5	4.3	·	9
O=S(=O)(NCc1ccc(F)cc1)c1ccc(-c2cnc(C3CC3)o2)cc1	0.6	0.7	-2	-19	-1.4	i	2	3.8	-2.2	-40
COc1ccc(S(=O)(=O)NCCC(=O)NCc2ccccc2)cc1	-0.8	0.72	·	·	·	·	5	5.0	·	-4
Cc1[nH]nc(N=CC2=C(O)CC(C)(C)CC2=O)c1-c1ccc(Cl)cc1	-0.3	0.68&0.67	7	3	1.1	·	-3	-3.7&-3.9	3.3	28
Cc1c(NC(=S)NC(NC(=O)C(C)(C)C)C(Cl)(Cl)Cl)c(=O)n(-c2ccccc2)n1C (centres undefined)	1.1	0.68	5	15	0.4	i	0	1.2	-11	-6
CC1=Nc2ccc(C)c3nc(C)cc(c23)N1c1ccc(C)cc1	0.2	0.78	·	·	·	·	6	-144	·	10

Single entries from above.
COc1ccccc1C(CCN(Cc1cccs1)C(C)=O)c1ccco1 (centres undefined) in UCH37 inh = 4.3
CC1=Nc2ccc(C)c3nc(C)cc(c23)N1c1ccc(C)cc1 in UCH37 inh = -144

An excerpt. The share of hits here may be higher or lower than overall.
